High-throughput results from PubChem.
ClpP mod – qHTS Assay for Activators of ClpP | ATP-dependent Clp protease proteolytic subunit (Bacillus subtilis (strain 168)), P80244 | purified B. subtilis ClpP, FRET peptide cleavage, 20 min | Potency, µM (series often up to 57.5 µM), inactives show at the top dose activity change, negative = active | hit rate 1.9% among 340,000 | AID 651965, 2013; active = well fitted falling curve with a large enough effect; inconclusive = small, poorly fitted or top-dose-only effect; inactive = no such curve, though single readings can be large or run the other way; note: potency is the fitted concentration of half-maximal effect; the source files actives as falling curves though it sought activators and does not explain the sign; nearly all actives have a fitted effect of over 65% in size; many hits overshoot -100%
Target sequence (P80244 whole entry, looked up): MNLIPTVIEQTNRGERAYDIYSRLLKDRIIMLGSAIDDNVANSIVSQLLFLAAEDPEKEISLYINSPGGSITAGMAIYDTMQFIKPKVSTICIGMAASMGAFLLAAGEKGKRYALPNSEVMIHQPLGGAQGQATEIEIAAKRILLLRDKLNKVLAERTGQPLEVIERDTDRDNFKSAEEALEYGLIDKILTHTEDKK
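Purified B. subtilis ClpP, 10 microg/mL final in Tris/HCl pH8 with KCl, BSA, glycerol and Tween-20, cleaved an Abz/nitrotyrosine-quenched decapeptide. Fluorescence (ex 320, em 430) was read at 0 and 20 min at room temperature. Delta was normalized to 5.8 microM ADEP and DMSO/no-enzyme controls.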
TRPML1 agonist – activates the human TRPML1 channel; Q9GZU1; TRPML1-expressing cells, Ca2+ dye fluorescence, FDSS; host cell line not named in the record; reference of the full effect not given here; activation, % (concentration not given with the values); hit rate 0.12% among 410,000; AID 624414; in the data active = activation above about 50%; inconclusive = about 30% to 50%; inactive = below about 30%; note: 0% is about no effect; the text of the record puts the active cut at 80%
Target sequence (Q9GZU1 whole entry, looked up): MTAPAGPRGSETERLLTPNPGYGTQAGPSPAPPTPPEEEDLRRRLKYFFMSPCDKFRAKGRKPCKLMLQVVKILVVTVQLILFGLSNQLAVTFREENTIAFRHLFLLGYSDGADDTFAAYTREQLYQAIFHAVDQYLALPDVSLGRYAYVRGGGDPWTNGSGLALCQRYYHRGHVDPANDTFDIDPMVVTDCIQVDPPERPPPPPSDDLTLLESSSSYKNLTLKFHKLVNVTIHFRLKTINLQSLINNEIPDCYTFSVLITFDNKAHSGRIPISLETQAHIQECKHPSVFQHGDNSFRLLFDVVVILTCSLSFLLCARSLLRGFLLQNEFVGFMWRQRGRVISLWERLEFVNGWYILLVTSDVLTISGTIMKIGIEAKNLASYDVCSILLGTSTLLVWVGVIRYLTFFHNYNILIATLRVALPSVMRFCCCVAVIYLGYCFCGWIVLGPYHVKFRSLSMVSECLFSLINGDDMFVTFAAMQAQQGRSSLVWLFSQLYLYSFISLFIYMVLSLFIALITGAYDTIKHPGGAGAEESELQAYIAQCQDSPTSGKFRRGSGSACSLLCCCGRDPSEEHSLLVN
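Kinetic FDSS Ca2+ read in Tet-induced TRPML1-DL cells (ABD Ca8 dye plus quencher, 45-90 min RT loading): baseline, then compound, then 110 s agonist window; EC80 agonist 54-4 at 4uM final added afterwards for a 110 s antagonist window.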
TRPML1 blocker – inhibitors of human TRPML1 channel. Q9GZU1. hit rate 0.02% among 390,000. AID 624415. TRPML1-inducible cells, Ca2+ dye fluorescence, FDSS; hits give low values; inhibition of EC80 agonist-evoked calcium signal. activity change, negative = inhibition, % (test concentration not listed); in the data active means activity change below about -50%; inconclusive means about -30% to -50%; inactive means above about -30%;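 note: stimulus is agonist 54-4 at its EC80 concentration; % is set by controls: 0 for no effect and ±100 for the full control effect; compound concentration not given in the record; the text of the record puts the active cut at -80%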
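Calcium fluorescence in TRPML1-DL cells induced overnight with Tet: a 110 s read after compound pin addition, then a 110 s antagonist read after challenge with 54-4 at 4 uM final (EC80).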
TRPV1 potentiator – human TRPV1 potentiation; TRPV1-expressing cells, Fluo-8 calcium influx, capsaicin EC20 potentiation; host cell line not named in the record; control for the full effect not named in the record; hit rate 0.02% among 320,000; potentiation, % at 8.33 µM; Q8NER1; active means potentiation above 80%; inconclusive means 30% to 80%; inactive means below 30%; note: 0% is about no effect
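Cells expressing TRPV1 were dye-loaded with Fluo-8 and read kinetically: 10 s baseline, 3 min after compound (agonist portion), then 2 min after EC20 capsaicin (allosteric enhancer portion). Calcium-bound dye fluorescence at 480/520 nm.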
PINK1 modulator – PINK1 expression modulation; AID 624263; hit rate 0.2% among 410,000; Potency, µM (titrated, usually from 76.6 µM), without a hit: at the highest dose activation (PINK1 increase), most hits filed as activators; PINK1 immunofluorescence, high-content cytometry, 24 h; active = well fitted activation curve with a large enough effect; inconclusive = small, poorly fitted or top-dose-only effect; inactive = flat fitted curve, though single readings scatter; cell line not stated here;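 note: potency is the fitted concentration of half-maximal effect; % of control where 0% means no effect; nearly all actives have a fitted effect of over 65% in size; a mitochondrial uncoupler was the plate control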
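A stable cell line was treated with compounds at 5 concentrations for 24 hours, with CCCP as control. PINK1 levels and mitochondrial localization were measured by immunofluorescence with mitochondrial, cell and nuclear markers after fixation, read by laser-scanning cytometry.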
Menin MLL FP FL – menin-MLL binding inhibition, fluorescein peptide. AID 1766. FP activity change, % at 61.4 µM. Fluorescence polarization, fluorescein-MLL peptide displacement from menin. 290,000 tested, under 10 active; inconclusive = falling polarisation curve, or a change in total fluorescence; inactive = total fluorescence flat and polarisation flat or rising; no compound was filed as active; the % refers to the polarisation; negative = inhibition;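 note: % of control where 0% means no effect; inhibitors lower the polarisation; unlabelled MLL peptide was the positive control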
Sfp inh – blocks B. subtilis Sfp PPTase activity; Q9F4F7; Biochemical Sfp PPTase activity, qHTS; Potency, µM, inactives show max response, negative = inhibition, most hits filed as inhibitors; hit rate 3.5% among 310,000; AID 1490; active = well fitted inhibition curve with a large enough effect; inconclusive = small, poorly fitted or top-dose-only effect, or another doubt; inactive = no such curve, though single readings can be large or run the other way;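 note: the enzyme is Sfp with the accession as filed and its product quenches rhodamine fluorescence; potency is the fitted concentration of half-maximal effect; 0% = enzyme reaction without inhibitor and -100% = no enzyme wells; top concentration of the series not given in the record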
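Sfp 15 nM + cpd, 15 min RT; start w/ rhodamine-CoA 5 uM, BHQ-2-YbbR 12.5 uM (final); 50 mM Hepes pH 7.6, 10 mM MgCl2, 0.01% NP-40, 0.01% BSA; read 525/598 nm at 0 and 30 min.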
* = called active by the depositor; ? = inconclusive; . = not tested or not shown; & = joins results of further samples; [ ] = another dose, or the depositor's remark. Not a hit list. Share with any hit: about 4.4%.

SMILES | ClpP mod | TRPML1 agonist | TRPML1 blocker | TRPV1 potentiator | PINK1 modulator | Menin MLL FP FL | Sfp inh
CCc1ccc(CN/C=C/C(=O)c2ccc(Br)cc2)cc1 | 0.4% | 1.7 | 2 | -6 | 28% | 0.2 | 5%
Cc1ccccc1N1CCN(CC(=O)NCc2ccc(Cl)cc2)CC1 | 0.6% | 0.6 | -9 | 27 | 4.3% | 0.4 | 10%
CCOC(=O)COc1ccc2nsnc2c1Cl | 35µM* | 1.4 | 11 | 24 | 0.5% | -1.9 | 16%
CCOc1cc(S(=O)(=O)Nc2cc(C)cc(C)c2)ccc1Cl | -0.2% | 0.3 | -1 | -7 | 15%[38.3 µM] | -0.3 | 2%
Cc1ccc(-n2nc3c(N4CCC(C(=O)N5CCC(C(N)=O)CC5)CC4)nnc(C)c3c2C)cc1 | 4.4% | 0.5 | -9 | -4 | 0.4% | ? | 11%
COc1ccc(S(=O)(=O)Nc2ccc(O)c(Sc3ncn[nH]3)c2)cc1 | 0.0% | -0.3 | -5 | 7 | . | -0.4 | -6%
COc1ccc(CCN2CC(C(=O)NCc3cccc(F)c3)CCC2=O)cc1 (configuration not stated) | -0.6% | -1.1 | 7 | . | -0.9% | . | .
CSc1nnc(SCC(=O)N(C)c2c(N)n(Cc3ccccc3)c(=O)[nH]c2=O)s1 | -1.2% | -0.9 | 8 | 8 | -1.0% | . | .
CC(C(=O)Nc1ncccn1)(c1ccccc1)c1ccccc1 | . | 1.6 | 10 | 4 | -1.3% | -6.1 | -8%
Cc1ccc(-n2ncc3c2CC(C)(C)CC3NC(=O)CN2CCCC2=O)cc1 (configuration not stated) | -1.5% | 0.9 | -9 | -1 | 2.8% | . | 5%
CCOC(=O)N1CCN(c2nc(-c3ccc(Cl)cc3)cs2)CC1 | -4.6% | 0.0 | 27 | -4 | . | 3.1 | ?
Cc1nc2ccc(NC(=O)c3cccs3)cc2s1 | -0.6% | -0.6 | -12 | -12 | 1.6% | -1.5 | 14%
COc1cccc(C(C)NC(=S)NCc2ccc(Cl)cc2)c1 (configuration not stated) | 0.9% | 3.0 | 11 | -4 | -0.7% | -1.6 | 13%
O=S(=O)(c1ccc(SCCO)nc1)N1CCOCC1 | -1.3% | -0.1 | 17 | 27 | 1.8% | . | .
CCOc1ccc(NCC2CCOC(C)(C)C2)cc1 (configuration not stated) | -8.9% | 0.2 | 30 | 4 | 1.4% | 1.8 | -1%
Cc1ccccc1NC(=O)Cn1nc(-c2ccc(Cl)s2)ccc1=O | -9.0% | -0.7 | -13 | -8 | 1.4% | -2.3 | -14%
CCN1CCn2c3c(c4cc(Cl)ccc42)CCCC31 (configuration not stated) | 16µM* | -0.9 | 10 | 4 | 6.5% | -2.3 | ?
COc1ccc(CNC(=O)C2=CC(c3ccc(OC)c(OC)c3)=NS(=O)(=O)N2C)cc1 | 0.0%&-3.5% | 0.5&1.0 | -3&-6 | 5 | 2.9%&-1.9% | -1.9 | 6%
C/C(=N\Nc1nc(C)cc(C)n1)c1ccc(C)o1 | -1.5% | -0.5 | 9 | -1 | 1.2% | 1.3 | -4%
CCC(CC)C(=O)OCC(=O)C1(O)CCC2C3CCC4=CC(=O)CCC4(C)C3C(O)CC21C (configuration not stated) | . | 0.8 | 4 | . | 7.0% | . | .
CCOC(=O)c1c(NC(=O)COc2ccccc2F)sc2c1CCCC2 | -5.6% | 2.5 | 24 | . | 1.9% | . | .
C1CN(c2nc3nonc3nc2N2C[C@H]3CC[C@H]2C3)CCS1 | -2.1% | 0.0 | 0 | 8 | 0.9% | -4.7 | 3%
CC1(C)CC(=O)C(N=Nc2ccc(-c3ccccc3)cc2)=C(O)C1 | 0.3% | -0.6 | -12 | 2 | ? | ? | 25%
COc1ccc(CN2CCN(c3nc4ccccc4s3)CC2)cc1 | -3.1% | -0.7 | 3 | -7 | 0.5% | 0.5 | 10%
COc1ccc(C(O)c2nc(-c3ccc4ccccc4c3)cs2)cc1 (configuration not stated) | -5.4% | 2.3 | . | . | 0.4% | . | .
COCCNC(=O)/C(C#N)=C/C=C/c1ccccc1[N+](=O)[O-] | . | 1.9 | -14 | -3 | 4.4% | ? | 15%
Cc1ccc(/C=C/C(=O)Nc2nn[nH]n2)o1 | -8.9% | 0.5 | -14 | 2 | 0.9% | ? | -90%
O=C(CN1C(=O)c2ccccc2C1=O)NCC1CCCO1 (configuration not stated) | -0.7% | 0.1 | 19 | 6 | 0.9% | 2.7 | 23%
O=C(Nc1cc(=O)[nH]c2nc(-c3ccc(Cl)cc3)nn12)c1ccccc1 | . | 1.1 | 14 | -14 | -0.5% | 11 | -14%
Cc1c(Cl)cccc1N=C1NC(=O)CS1 | 0.9% | -0.7 | -8 | . | 2.1% | . | .
CCOC(=O)c1ccc[n+](CC(=O)Nc2ccccc2OC(F)F)c1 | . | 0.8 | 24 | 10 | -0.6% | 4.8 | 15%
CCC(C)CCCCNC1=NCCS1 (configuration not stated) | . | 0.9 | 28 | 2 | -0.7% | -2.0 | -21%
Cc1cccc(CN2CCN(C3CN(CCc4ccccc4)S(=O)(=O)C3)CC2)c1 (configuration not stated) | 1.0% | 3.5 | 34 | . | 1.9% | . | .
Cc1cc(NC(=O)CSc2nc(-c3ccc(F)cc3)cs2)no1 | -0.2% | 2.9 | 17 | -4 | 5.9% | 1.4 | 16%
CCc1nc(-c2cc(S(=O)(=O)N3CCN(c4ccccc4OC)CC3)ccc2OC)no1 | -2.0% | 1.1 | -1 | . | 0.7% | . | .
Cc1cc(=O)[nH]c2c3ccccc3nn12 | -18% | 0.6 | -6 | -6 | 0.7% | -5.6 | 11%
CCNC(=S)NNC(=O)CC(C)C | 0.9% | 0.0 | 9 | 1 | 3.0% | 0.0 | -11%
CCOC(=O)c1ccc(N/C=C/C(=O)C(C)(C)C)cc1 | . | -0.3 | 4 | 5 | 4.0% | -1.0 | -2%
COc1ccc(NC(=O)CC2C(=O)N(c3ccc(F)cc3)C(=O)N2Cc2cccnc2)cc1 (configuration not stated) | 1.4% | 0.8 | 5 | . | 2.8% | . | .
CC(C)(C)NC(=O)CSc1nncn1NCc1ccccc1 | 1.0% | -0.9 | 4 | -7 | -1.4% | -1.1 | 13%
CCOc1ccc(S(=O)(=O)Nc2cccc(C(=O)N(C)CC(=O)Nc3cccc(OC)c3)c2)cc1 | -4.0% | 0.8 | 24 | 7 | 0.5% | . | .
Cn1nc(-c2ccccc2)cc1NC(=O)c1ccc(Cl)cc1 | -3.2% | -0.5 | 16 | 10 | 3.6% | . | .
COc1ccc2nc(NC(=O)C34CC5CC(CC(NC(C)=O)(C5)C3)C4)sc2c1 | -3.2% | 0.0 | 3 | -16 | 2.4% | . | -7%
C[C@@H]1CN([C@@H](C)CO)C(=O)CCCn2nncc2CO[C@H]1CN(C)Cc1ccc(C(F)(F)F)cc1 | -0.8% | 1.4 | -5 | . | -2.4% | . | .
CCOC(=O)c1cccnc1SCC(=O)N(CC)c1cccc(C)c1 | 0.6%&0.6% | 0.7&1.3 | 21&0 | -6 | 1.8% | 1.2 | 15%
O=C(NC1CCCCCC1)C(=O)NC1CC1 | . | 0.6 | 20 | 5 | 2.7% | -0.3 | 4%
COc1cc(CCCN2C(=S)NC[C@@H]2CCCCN)cc(OC)c1OC | 0.9% | 0.7 | -10 | 2 | -1.3% | -4.1 | 22%
Cc1ccccc1C(=O)Nc1cccc(-c2ccc(N3CCOCC3)nn2)c1 | -7.4% | -1.0 | 4 | 6 | 12% | . | .
CC(C)CC1NC(=O)N(Cc2cc(=O)n3ccsc3n2)C1=O (configuration not stated) | . | -0.7 | -10 | 2 | 1.8% | 5.3 | 20%
O=C(CCc1c[nH]c2ccccc12)NC(Cc1c[nH]c2ccccc12)C(=O)O (configuration not stated) | -8.9% | -0.1 | -2 | 1 | 0.7% | ? | 0%

Look-ups from the results shown:
Value of O=C(NC1CCCCCC1)C(=O)NC1CC1 in Menin MLL FP FL: -0.3
Value of COc1cc(CCCN2C(=S)NC[C@@H]2CCCCN)cc(OC)c1OC in TRPV1 potentiator: 2

Later entries
SMILES | ClpP mod | TRPML1 agonist | TRPML1 blocker | TRPV1 potentiator | PINK1 modulator | Menin MLL FP FL | Sfp inh
O=C(O)CCCCn1c(SCc2cc(=O)n3cc(Cl)ccc3n2)nc2ccsc2c1=O | -7.3% | 1.3 | -9 | 9 | -1.2% | 4.2 | -17%
CN(CC(=O)Nc1ccccc1Br)C(=O)c1cc([N+](=O)[O-])ccc1N1CCOCC1 | 1.0% | 0.1 | 4 | -14 | 9.9% | . | .
O=C(Cc1cccc(NC(=O)C2CCN(C(=O)C3CCCC3)CC2)c1)Nc1cccc(C(=O)N2CCCCC2)c1 | -26% | 0.5 | -2 | . | -1.2% | . | .
O=C(CN(C1CCCCC1)S(=O)(=O)c1ccc(Br)cc1)NCc1cccnc1 | . | -0.3 | -8 | -6 | 2.8% | -4.1 | -1%
CCCC(=O)c1ccc(OCc2cn(CC(=O)c3ccc(O)cc3)nn2)cc1 | 0.3% | -1.0 | -5 | . | 2.1% | . | .
CC(C)NC(=O)C1CCN(C2CCN(C(=O)Cc3ccc4c(c3)OCO4)CC2)CC1 | . | -0.3 | -11 | 4 | -1.8% | -4.6 | 13%
CN(C(=O)COC(=O)c1ccc(Cl)cc1N)C1CCCCC1 | . | -0.8 | 2 | -14 | 9.4% | -1.2 | 14%
CC12CCCCC1C(C(N)=O)C(=O)O2 (configuration not stated) | -2.9% | 0.2 | 6 | . | -3.3% | . | .

No new results follow: three of the compounds above.
SMILES | ClpP mod | TRPML1 agonist | TRPML1 blocker | TRPV1 potentiator | PINK1 modulator | Menin MLL FP FL | Sfp inh
CC(C)NC(=O)C1CCN(C2CCN(C(=O)Cc3ccc4c(c3)OCO4)CC2)CC1 | . | -0.3 | -11 | 4 | -1.8% | -4.6 | 13%
CN(C(=O)COC(=O)c1ccc(Cl)cc1N)C1CCCCC1 | . | -0.8 | 2 | -14 | 9.4% | -1.2 | 14%
CC12CCCCC1C(C(N)=O)C(=O)O2 (configuration not stated) | -2.9% | 0.2 | 6 | . | -3.3% | . | .
